Assay outcomes (PubChem)
ClpP mod: qHTS Assay for Activators of ClpP. ATP-dependent Clp protease proteolytic subunit (Bacillus subtilis (strain 168)), P80244. purified B. subtilis ClpP, FRET peptide cleavage, 20 min. Potency, µM (top dose mostly 57.5 µM), for inactives: top-dose activity change, negative = active. 1.9% of 340,000 active. AID 651965, 2013; active = well fitted falling curve with a large enough effect; inconclusive = small, poorly fitted or top-dose-only effect; inactive = no such curve, though single readings can be large or run the other way; also: the source files actives as falling curves though it sought activators and does not explain the sign; nearly all actives have a fitted effect of over 65% in size; many hits overshoot -100%
Target sequence (P80244 whole entry, looked up): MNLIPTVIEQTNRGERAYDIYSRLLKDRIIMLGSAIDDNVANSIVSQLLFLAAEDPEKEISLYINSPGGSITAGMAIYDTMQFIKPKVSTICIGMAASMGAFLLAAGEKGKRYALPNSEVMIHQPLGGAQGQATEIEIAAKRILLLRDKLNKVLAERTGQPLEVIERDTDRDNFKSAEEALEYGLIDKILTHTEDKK
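ClpP 10 microg/mL final, pH 8 Tris/KCl buffer with BSA, glycerol, Tween-20; compound pinned in; FRET-FV substrate; RT 20 min; Ex320/Em430; ΔFRET vs ADEP 5.8 microM, DMSO, no enzyme.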
The depositor's hits bear a star; u = inconclusive. Potency is read from the fitted curve at half-maximal effect.

smiles	ClpP mod
CCOc1cc(C#N)c(NC(=O)c2ccc(OC)c(S(=O)(=O)N3CCCCC3)c2)cc1OCC	4.0%
Cc1ccc(C)n1-c1nnc(N2CCC(C(=O)NCc3ccccc3Cl)CC2)s1	10.9%
CCc1ccc(N(C)S(=O)(=O)c2ccc3[nH]cc(C(=O)NCC4CCCO4)c(=O)c3c2)cc1 (centres undefined)	-19.5%
Cc1ccc(C2CCN(C(=O)c3cnn(-c4ccccc4Cl)c3C3CCN(C(=O)OC(C)(C)C)CC3)C2)cc1 (centres undefined)	0.4%
Cc1ccc(NC(=O)CSc2nc(=O)n(Cc3cccnc3)c3c2CCC3)cc1F	-0.8%
CCOc1ccccc1CNC(=O)c1cnc2sc(N3CCCC3)nn2c1=O	7.94µM*
O=C(NCCc1nc2ccccc2n1CCOc1ccccc1)C1CCCCC1	-3.3%
COc1ccc(-c2cc(-c3ccc(F)cc3)nc3c2COc2ccc(F)cc2-3)cc1	-11.6%
COc1ccccc1C(=O)N1CCC(c2noc(-c3ccc(S(=O)(=O)N4CCCC4)cc3)n2)CC1	0.3%
O=C(c1cccs1)N1CCCc2cc(NS(=O)(=O)c3ccc(Br)cc3)ccc21	-2.3%
Cc1cnc2ccccc2c1/C=C/c1ccc(N(C)C)cc1	-0.3%
O=C(NCCc1ccccc1)c1ccc2c(c1)N(Cc1ccc(F)cc1)C(=O)c1ccccc1S2(=O)=O	0.8%
CN1CCN(c2ncc3c(n2)CCN(Cc2ccc(Br)s2)C3)CC1	0.6%
Cc1ccc(NC(=O)Nc2cc3c(cc2N2CCCCC2)n(C)c(=O)n3C)cc1Cl	-19.5%
COc1ccc(S(=O)(=O)NCc2cccn2Cc2cccc(C)c2)cc1	0.4%
CCC12CN3CC(C)(CN(C1)C3c1ccccc1C)C2=O (centres undefined)	-2.2%
COc1cc(C(=O)NCc2nc3cccnc3n2Cc2ccc(C)cc2)cc(OC)c1OC	-3.1%
CCOc1ccc(NC(=O)CSc2nc3c(oc4ccccc43)c(=O)n2-c2ccccc2C)cc1	-10.2%
CC1=C(C(=O)OC2CCCCCC2)C(c2c(Cl)cccc2Cl)CC(=O)N1 (centres undefined)	1.8%
CN(C(=O)Cn1ncc2c1-c1ccccc1OC2)c1ccc(Br)cc1	-5.5%
CCc1ccc(NS(=O)(=O)c2ccc(C(=O)N(C)C)s2)cc1	-0.6%
COc1ccc(NC(=O)CCn2cccn2)cc1OC	0.5%
CCc1ccc(S(=O)(=O)c2cn(C)c3cc(N4CCC(C)CC4)c(F)cc3c2=O)cc1	13.3%
Oc1c(C(c2ccc(Br)cc2)N2CCOCC2)sc2nc(-c3ccco3)nn12 (centres undefined)	-1.0%
COc1ccc(OC)c(NC(=O)CN2C(=O)COc3ccc(S(=O)(=O)NC4CCCC4)cc32)c1	-0.6%
CC1(C)CC(=O)c2cc(-c3nc(-c4ccccc4)cs3)c(=O)[nH]c2C1	u
CC[C@@H]1CC2=C(C(=O)OC(C)(C)O2)[C@@H](c2ccc(Cl)cc2)O1	-0.7%
CCOc1cc(S(=O)(=O)NCCc2c(C)[nH]c3ccc(C)cc23)ccc1Br	-1.9%
CC(=O)c1c(C)oc2c(Br)cc(NS(=O)(=O)c3ccc(Br)cc3)cc12	-0.3%
CCC(Cc1ccccc1)NC(=O)Cn1nc(C)n2c(cc3occc32)c1=O (centres undefined)	-1.8%
CCc1ccccc1NC(=O)c1ccc(CN2C(=O)CCn3nc(C)cc32)cc1	-0.7%
Cc1cccc(NC(=O)C2CCN(S(=O)(=O)c3c(C)noc3/C=C/c3ccco3)CC2)c1C	-1.8%
COc1ccc2nc(N(Cc3cccnc3)C(=O)Cc3ccccc3)sc2c1	-0.1%
CC1CCc2c(sc3nnn(CC(=O)Nc4ccc(Cl)cc4)c(=O)c23)C1 (centres undefined)	-1.9%
COC(=O)[C@]12CCCCC=C1N(CCC1=CCCCC1)C(=O)[C@H](CC(=O)NCC1CCCCC1)C2	0.7%
COc1ccc(CCNC(=O)CCn2c(=O)c3cccn3c3ccc(F)cc32)cc1OC	-8.1%
O=C(Nc1ccccc1)C1CCN(S(=O)(=O)c2ccc3[nH]c4c(c3c2)CCCCC4)CC1	u
CC(C)Oc1ccc(CNS(=O)(=O)c2ccc(-c3cc(C(F)(F)F)on3)s2)cc1	4.4%
CCOc1ccc(NC(=O)CSc2nnc3scc(-c4ccc(Cl)cc4)n23)cc1	4.3%
CCOC(=O)Cn1c(=O)c2c(nc(N3CCOCC3)n2Cc2ccccc2)n(C)c1=O	-1.4%
Cc1cc(C)cc(OCCOCCn2c(-c3ccc(Cl)cc3)nc3ccccc3c2=O)c1	-4.7%
CCc1ccc(C(c2ccccc2)c2c[nH]c3ccc(C)cc23)s1 (centres undefined)	-9.4%
Cc1ccc2oc(=O)c(-c3nc4ccc(C)cc4[nH]3)cc2c1	-3.4%
CCCCCCCCCCN(CCCCCCCCCC)c1ccccc1	-1.8%
Clc1cccc(N2CCN(c3nc4ccccc4c4nc(-c5ccccc5)nn34)CC2)c1	-1.1%
CCOC(=O)c1cc(-c2ccccc2)n(CC(=O)NC(C)c2ccccc2)c1C (centres undefined)	-4.5%
OC(Cc1ccc2ccccc2n1)c1ccc(Cl)c(Cl)c1 (centres undefined)	-2.6%
Cc1ccc(S(=O)(=O)N2CCN(c3nc(-n4c(=O)[nH]c5ccccc54)nc4ccccc34)CC2)cc1	-22.0%
CCOC(=O)c1scc(-c2ccc(C)cc2)c1S(=O)(=O)Nc1cccc(CC)c1	-2.9%
CCCCN(CC)CCCNC(=O)c1sc2nc(C)cc(C)c2c1-n1cccc1	0.8%

Other structures
smiles	ClpP mod
Cc1ccc(-n2ncc3c(N4CCN(Cc5ccccc5)CC4)ncnc32)cc1C	u
CC(C)n1nnnc1C1c2ccccc2C(=O)N1Cc1ccc(F)cc1 (centres undefined)	-5.0%
O=C(Nc1ccc(F)cc1)C(c1ccncc1)N1CCN(c2cccc(C(F)(F)F)n2)CC1 (centres undefined)	0.6%
CCOc1ccc(C(=O)Nc2ccc(S(=O)(=O)N3CCCCC3c3cccnc3)cc2)cc1 (centres undefined)	u
COc1ccc(-c2nc3ccc(NS(C)(=O)=O)cc3o2)cc1	4.3%
COc1ccc(NC(=O)Cn2c(=O)n(Cc3nc(-c4ccccc4)no3)c(=O)c3cc4c(cc32)OCO4)cc1Cl	u
Cc1ccc(-c2cc(C(F)(F)F)n3nc(C(=O)Nc4sc5c(c4C#N)CCC(C)C5)cc3n2)cc1 (centres undefined)	1.1%
Cc1ccc(S(=O)(=O)c2nnn3c2nc(NCc2cccs2)c2sccc23)cc1C	-14.4%
CCCCNC(=O)c1c(C)oc2ncn(CC(C)C)c(=O)c12	-2.5%
CC(C)c1ccc(NC(=O)C2CCCN2S(=O)(=O)c2ccc3nc(-c4ccccc4)[nH]c3c2)cc1 (centres undefined)	-19.5%
COc1ccc(CCNC(=O)CCN2N=C(c3ccccc3)CCC2=O)cc1OC	1.6%
CCOC(=O)C1CCCN(C(=O)Cn2ncc3c(C)n(Cc4ccc(F)cc4)c(C)c3c2=O)C1 (centres undefined)	-23.7%
Cc1cccc(C)c1NC(=O)C1CCCN(S(=O)(=O)c2c(C)noc2/C=C/N(C)C)C1 (centres undefined)	-2.6%
CC(C)CN(CCNC(=O)c1cc(-c2ccc(Cl)s2)nc2ccccc12)CC(C)C	0.7%
O=C(C[n+]1ccccc1Br)c1ccc(I)cc1	-0.6%
CCN(Cc1ccccc1)Cc1c(O)ccc2c(=O)c(-c3ccccc3Cl)c(C(F)(F)F)oc12	-2.6%
CCOC(=O)CC(=O)CSc1nc2ccccc2c(=O)n1CCc1ccc(S(N)(=O)=O)cc1	3.7%
CCOc1ccc(C(=O)Nc2ccc3nc(Nc4cccc(C(F)(F)F)c4)cc(C)c3c2)cc1OCC	u
Cc1cc(C)c(NC(=O)c2sc3nc(C)cc(C)c3c2N)c(C)c1	4.3%
O=C(NCCN1CCC(n2c(=O)[nH]c3ccccc32)CC1)c1cccnc1	1.5%
O=C1CN(C(=O)c2ccc(S(=O)(=O)N3CCCCC3)cc2)C(c2ccc(F)cc2)c2cc(Br)ccc2N1 (centres undefined)	-3.0%
CC(C)(C)OC(=O)N1CCC(c2c(C(=O)N3CCN(c4ccccc4F)CC3)cnn2-c2ccccc2Cl)CC1	0.9%
Cc1cccc(S(=O)(=O)c2cn(C)c3cc(N4CCN(c5ccc(F)cc5)CC4)c(F)cc3c2=O)c1	2.1%
COc1cc2c(cc1OC)n(CC(=O)c1ccc(F)cc1)c(=O)n1nc(CCn3nc(C)cc3C)nc21	-1.6%
CCCCNc1nc(Oc2ccc(=O)n(C)n2)nc(N2CCOCC2)n1	0.9%

Six compounds already listed, arranged by formula weight, smallest number first:
smiles	ClpP mod
COc1ccc(NC(=O)CCn2cccn2)cc1OC	0.5%
Cc1cnc2ccccc2c1/C=C/c1ccc(N(C)C)cc1	-0.3%
Cc1ccc(-n2ncc3c(N4CCN(Cc5ccccc5)CC4)ncnc32)cc1C	u
Clc1cccc(N2CCN(c3nc4ccccc4c4nc(-c5ccccc5)nn34)CC2)c1	-1.1%
Cc1ccc(S(=O)(=O)c2nnn3c2nc(NCc2cccs2)c2sccc23)cc1C	-14.4%
O=C(NCCc1ccccc1)c1ccc2c(c1)N(Cc1ccc(F)cc1)C(=O)c1ccccc1S2(=O)=O	0.8%

New compounds follow:
smiles	ClpP mod
Cc1ccc(NC(=O)C2CCN(C(=O)c3cnn(-c4ccccc4)c3-n3cccc3)CC2)cc1Cl	-3.5%
Cc1cc(C)cc(NC(=O)CCN2C(=O)c3ccccc3Sc3ncccc32)c1	-0.8%
CCCCNc1c(CCc2ccccc2)nc2nc(C)cc(C)n12	-7.9%
CCOC(=O)C1CCN(C(c2ccc(C)cc2)c2c(O)cc(C)n(CCOC)c2=O)CC1 (centres undefined)	1.5%
CCC(=O)N1CCc2cc(CNC(=O)c3ccc(OC)cc3)ccc21	-2.4%
NC(=O)CSc1ncc2c(n1)-c1ccccc1N(Cc1ccc(Cl)cc1)S2(=O)=O	u
CS(=O)(=O)c1ccc(NC(=O)COc2ccccc2C(=O)Nc2ccccc2)cc1	0.8%
Cc1ccc(C2CCN(C(=O)Nc3ccc(C)c(C)c3)C2)cc1 (centres undefined)	0.6%
O=C(Nc1ccc([N+](=O)[O-])cc1Cl)c1cc(Cl)cc(Cl)c1O	-0.2%
COc1ccc(CNC(=O)c2cc3c(=O)n(C)c4ccccc4c3n2C)c(OC)c1	-23.8%
Cc1ccc(-n2nc3cc(C)c(NC(=O)COc4ccccc4)cc3n2)cc1	-17.1%
CCN(CC)C(=O)c1sc2c(c1C)c(=O)n(CCc1ccccc1)c(=O)n2Cc1ccc(C)cc1	0.2%
COc1cc(/C=C(\C#N)c2nc3ccccc3[nH]2)ccc1OCc1ccccc1F	-6.5%
O=c1c2cccnc2n(Cc2ccccc2F)c(=O)n1Cc1ccc(F)cc1	u
CCOc1cccc(Nc2nn(-c3ccc(OC(F)(F)F)cc3)nc2C(C)=O)c1	-9.6%
CC(=O)N1CCc2c(sc3c2c(=O)n(-c2ccccc2Cl)c(=O)n3C)C1	-3.6%
COc1ccc(-c2nc(SCC(=O)NC3CCCC3)c(-c3ccc(C)cc3)[nH]2)cc1OC	u
CCN(CC)S(=O)(=O)c1ccc(C(=O)Nc2nc3c(Cl)cc(Cl)cc3s2)cc1	-28.9%
CCOc1ccccc1NC(=O)c1cc2cc(C)ccc2n1C	-24.3%
O=C(c1ccc(Cl)cc1)N1CCCCC1CCN1CCOCC1 (centres undefined)	-1.8%
CCC(=O)N1CCc2cc(S(=O)(=O)CCC(=O)N3CCN(c4cccc(C)c4C)CC3)ccc21	-7.8%
Cc1ccc(Cn2cc(CN3CC(N4CCN(C)CC4)CS3(=O)=O)nn2)cc1 (centres undefined)	-0.1%
Nc1c(C(=O)NCc2cccs2)nnn1CC(=O)Nc1cccc(F)c1	-0.9%
Cc1ccc(NC(=O)Cn2c(=O)ccc3cc(S(=O)(=O)N4CCCC4)ccc32)cc1N(C)C	1.0%
Cc1nc(Sc2nnnn2C2CC2)c2c(-c3ccccc3)csc2n1	-1.8%
Cc1cc(N2CCC(C)CC2)nc2ccc(NC(=O)CCC(=O)N3CCN(c4ccccc4F)CC3)cc12	3.9%
Cc1ccnc2ccc(F)cc12	-1.3%
CC1=C(c2ccc(C)c(C)c2)S(=O)(=O)N(Cc2ccc(C(=O)Nc3cc(F)ccc3F)cc2)C1=O	u
Cc1nn(CCCC(=O)NCc2ccc(F)cc2)c(=O)c2c1sc1ccccc12	-12.4%
COc1ccc(-n2nnnc2C2CCN(S(=O)(=O)c3cccc(Cl)c3C)CC2)cc1	1.4%
CCc1ccc(C(=O)c2cn(CC(=O)Nc3cc(F)ccc3F)c3nc(C)ccc3c2=O)cc1	1.4%
CCc1ccc(S(=O)(=O)c2cn(Cc3ccccc3)c3cc(N4CCCC4)c(F)cc3c2=O)cc1	2.82µM*
CCOc1ccccc1CNC(=O)CCCn1c(=O)c2cccn2c2cccnc21	u
COc1cc(CNCCSc2nnnn2C)ccc1OCc1ccccc1C	1.8%
CCOc1ccccc1NC(=O)CSc1nc2c(c(=O)[nH]1)CCC2	0.6%

Only part of the results is shown (hit frequency here may not be typical).
